Screens deposited in PubChem by several laboratories.
CBX7 AlphaScr: CBX7 inhibition, primary AlphaScreen | O95931 | AlphaScreen His6-CBX7 / biotin-H3K27me3 peptide binding; stronger effect = lower value | normalised signal (fraction of DMSO) (concentration not given with the values) | actives 1.1% (n = 66,000) | AID 1224903; in the data active = normalised signal below about 0.5;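 note: 100 nL library stock added to about 20 µL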
Target sequence (O95931 whole entry, looked up): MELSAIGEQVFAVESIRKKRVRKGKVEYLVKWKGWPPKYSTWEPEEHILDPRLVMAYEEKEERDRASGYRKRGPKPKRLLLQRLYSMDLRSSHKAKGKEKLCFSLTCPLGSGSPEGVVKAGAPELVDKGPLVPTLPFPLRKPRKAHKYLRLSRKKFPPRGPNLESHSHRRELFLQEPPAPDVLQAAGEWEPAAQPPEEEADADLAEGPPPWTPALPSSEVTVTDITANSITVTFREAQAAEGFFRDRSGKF
CBX7 AlphaScr z-score: recorded beside CBX7 AlphaScr, whose call it bears; z-score; measured here: z-score of CBX7 signal; some inactives read as strong as hits; reference of the scale not given here;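 same signal on another scale; lower means less binding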
The depositor's hits bear a star. Some of the compounds tested. The share of hits here may be higher or lower than overall.

SMILES	CBX7 AlphaScr	CBX7 AlphaScr z-score
O=C(c1ccc(F)cc1)c1ccc(-c2nc3ccccc3nc2-c2ccccc2)cc1	0.93	-0.802
COc1ccc(CNC(=O)c2cc(Sc3ccc(C)cc3)nc3ccccc23)cc1	0.992	-0.179
CC(=O)Nc1ccc(NC(=O)CN2C(=O)CC(c3ccccc3)Sc3ccccc32)cc1 (centres undefined)	1.07	1.11
Cc1ccc(NC(=O)N(CCC(C)C)C(C)c2ccccn2)cc1C (centres undefined)	0.942	-1.5
O=C1Nc2cc(C(=O)N3CCC(Cc4ccccc4)CC3)ccc2Sc2ccccc21	0.777	-6.26
CCOC(=O)N1CCN(c2c(Nc3cc(C)[nH]n3)c(=O)c2=O)CC1	1.03	0.512
CC(NC(=O)c1nnc(Cc2ccc(F)cc2)o1)c1ccccc1 (centres undefined)	1.16	1.81
O=C(CC1Oc2ccc(Cl)cc2NC1=O)NC1CC1 (centres undefined)	1.04	1.69
COc1ccc(CN2C(=O)c3ccccc3C2C(=O)NC2CCC(C)CC2)cc1 (centres undefined)	0.985	-0.188
COc1ccc(Nc2cc(C(=O)NCc3ccccc3Cl)c3ccccc3n2)c(OC)c1	0.806	-2.97
CCC(C)NC(=O)C1CCCN(S(=O)(=O)c2cccc3cccnc23)C1 (centres undefined)	1.09	1.35
Cc1ccc(C(=O)Nc2ccccc2)cc1S(=O)(=O)N1CCOCC1	1.02	0.674

Individual results from the entries so far:
COc1ccc(Nc2cc(C(=O)NCc3ccccc3Cl)c3ccccc3n2)c(OC)c1 – CBX7 AlphaScr = 0.806
COc1ccc(CNC(=O)c2cc(Sc3ccc(C)cc3)nc3ccccc23)cc1 – CBX7 AlphaScr z-score = -0.179
O=C(CC1Oc2ccc(Cl)cc2NC1=O)NC1CC1 (centres undefined) – CBX7 AlphaScr = 1.04
COc1ccc(CN2C(=O)c3ccccc3C2C(=O)NC2CCC(C)CC2)cc1 (centres undefined) – CBX7 AlphaScr z-score = -0.188
Cc1ccc(NC(=O)N(CCC(C)C)C(C)c2ccccn2)cc1C (centres undefined) – CBX7 AlphaScr z-score = -1.5

Continuation.
SMILES	CBX7 AlphaScr	CBX7 AlphaScr z-score
CCOc1ccc(CCN2C(=O)CCC2(C)C(=O)NC2CCCC(C)C2C)cc1OCC (centres undefined)	0.965	-1.07
CC(NC(=O)c1ccc2c(c1)OCO2)C(c1cccs1)N1CCN(c2ccc(F)cc2)CC1 (centres undefined)	0.846	-5.03
CCC(=O)N1CCc2cc(S(=O)(=O)NC(C)(C)C)ccc21	1.16	1.62
COc1cc2cc(C)nc(Cc3cccc4ccccc34)c2cc1OC	0.982	-0.603
CC(NC(=O)c1ccc2c(c1)N(Cc1ccc(F)cc1Cl)C(=O)CS2)c1ccccc1 (centres undefined)	1	0.228
CC(C)Cn1c(CCCNC(=O)Cc2ccccc2)nc2ccccc21	1.1	1.05
COc1ccccc1CNc1nc2ccccc2n1CCN1CCOCC1	1.01	0.55
Cc1ccc(C)c(NC(=O)c2cnn(-c3ccccc3)c2C2CCN(C(=O)OC(C)(C)C)CC2)c1	0.943	-0.575
O=C(Nc1cccc(F)c1)N1CCC(n2c(=O)[nH]c3ccccc32)CC1	1.05	2.12
CCCCC(=O)Nc1c2c(nc3c1CCC3)CCCC2	1.04	1.19
O=C(CCOc1ccccc1)Nc1nc(-c2ccc(Cl)cc2)cs1	1.04	1.34
CC(=O)N1CCn2c3c(c(=O)c4cc(C)ccc42)CCC31 (centres undefined)	1.04	1.19
Cc1ccc(C)c(Cc2c(C)nc3c(C(=O)O)c[nH]n3c2=O)c1	1.17	2.23
Cc1onc(-c2c(F)cccc2Cl)c1C(=O)Nc1nnc(-c2ccccc2)s1	1.05	1.25
Cn1cc(CC(=O)N2CCN(c3ccccc3)CC2)c2ccccc21	0.769	-3.31
COc1cc(OC)cc(-c2nc3nc(C)c(CCC(=O)Nc4cc(F)ccc4F)c(C)n3n2)c1	0.938	-0.268
COc1ccc(-c2cc(C(=O)N3CCN(c4ccccc4F)CC3)c3ccccc3n2)c(OC)c1	0.727	-3.51
O=C(Nc1cc(-c2nc3ccccc3s2)ccc1Cl)c1cncc(Br)c1	0.917	-0.881
COc1ccc(C(=O)NCCCc2nc3ccccc3[nH]2)cc1OC	1.05	0.538
COc1ccc(-c2cc(C(=O)N3CCN(c4ccccc4OC)CC3)no2)cc1	1.02	0.0714
COc1ccccc1N1CCN(C(=O)Cn2ncc3c2-c2ccccc2OC3)CC1	1.04	0.522
COc1ccc(Cl)cc1C(=O)Nc1c2c(nn1-c1cccc(Cl)c1)CSC2	1.03	0.604
COC(=O)c1cc2sc(Cl)cc2n1CC(=O)NCC1CCCO1 (centres undefined)	0.998	-0.0522
Cc1ccc(NC(=O)Cn2cnc3sc(C(=O)N4CCCCCC4)c(C)c3c2=O)cc1Cl	1.01	0.0964

Part of the list above, in CSV form:
compound,CBX7 AlphaScr,CBX7 AlphaScr z-score
COc1ccc(Cl)cc1C(=O)Nc1c2c(nn1-c1cccc(Cl)c1)CSC2,1.03,0.604
O=C(c1ccc(F)cc1)c1ccc(-c2nc3ccccc3nc2-c2ccccc2)cc1,0.93,-0.802
CC(NC(=O)c1nnc(Cc2ccc(F)cc2)o1)c1ccccc1 (centres undefined),1.16,1.81
COc1ccccc1N1CCN(C(=O)Cn2ncc3c2-c2ccccc2OC3)CC1,1.04,0.522
CC(C)Cn1c(CCCNC(=O)Cc2ccccc2)nc2ccccc21,1.1,1.05
O=C(CC1Oc2ccc(Cl)cc2NC1=O)NC1CC1 (centres undefined),1.04,1.69

Further structures follow.
SMILES	CBX7 AlphaScr	CBX7 AlphaScr z-score
CCOCCCNC(=O)c1cnn2c(C)c(Cc3c(F)cccc3Cl)c(C)nc12	0.953	-0.292
Cc1ccc(OCc2nc(C#N)c(N(C)Cc3ccccc3)o2)cc1	0.626	-10.6
COc1ccc(C2=NOC(C(=O)NCCc3ccccc3)C2)cc1 (centres undefined)	1.03	0.455
CCOc1ccc(-c2nc3cc(NC(=O)c4ccc(F)cc4)ccc3o2)cc1	0.964	-1.39
CCN(CC)CCCNC(=O)C1c2cc(OC)c(OC)cc2C(=O)N(C)C1c1ccccc1F (centres undefined)	1.06	1.16
FC(F)(F)c1cccc(-c2noc(-c3cccc(Br)c3)n2)c1	1.22	3.37
CCOC(CNC(=O)c1ccc2c(c1)nc(C)n2-c1cc(C)cc(C)c1)OCC	1.23	2.14
CCCN(C(=O)Cn1nc(Cc2ccncc2)c2ccccc2c1=O)c1ccc(C(C)C)cc1	0.852	-4.84
Cc1nnc(Sc2cc(C(=O)NCCN(C)C)c3ccccc3n2)s1	1.03	0.451
CCC1(C(O)(C#CCN(CCO)CCO)c2ccccc2)CCCC1 (centres undefined)	0.818	-2.58
Cc1ccc(-c2nnc(N3CCCCC3)c3ccccc23)cc1S(=O)(=O)N(C)C	0.958	-1.08
CCCCCC1C(c2ccccc2)N(C)C(c2ccccc2)CC1(O)c1cccc(OC)c1 (centres undefined)	0.976	-0.598
COCCNC(=O)c1cnn2c(C(F)F)cc(-c3ccccc3)nc12	1.05	1.46
Cc1cc(N2CCN(C)CC2)nc2ccc(NC(=O)c3ccc4c(c3)OCO4)cc12	1.04	1.62
Cc1ccc(-n2ncc(C(=O)Nc3ccccc3)c2C2CCN(C(=O)OC(C)(C)C)CC2)cc1	1	0.036
Cc1ccc(-c2n[nH]c(=O)c3ccccc23)cc1S(=O)(=O)N1CCN(Cc2ccccc2)CC1	1.07	0.629
COc1ccccc1OCC(O)Cn1c(=N)n(C)c2ccccc21 (centres undefined)	1.01	0.337
C=CCN1C(=O)c2ccccc2Sc2ccc(C(=O)NCC(OC)OC)cc21	1.01	0.304
Oc1cccc(Nc2nc(-c3ccccn3)cs2)c1	0.186*	-16.1*
O=C(Nc1ccc(S(=O)(=O)Nc2ncccn2)cc1)c1cccc(Br)c1	1.11	3.17
CN(CCCNC(=O)c1csc2c1CCCC2)C1CCCCC1	1.04	1.75
O=C(c1ccc2c(c1)N(Cc1ccccc1F)C(=O)c1ccccc1S2)N1CCCCC1	0.954	-1.13
O=C(CSc1nc(-c2ccc(F)cc2)[nH]c1-c1ccccc1)Nc1ccccc1	1.01	0.331
O=C(NCc1cccnc1)c1cnn2c(C(F)(F)F)cc(-c3ccc(F)cc3)nc12	1.1	3.22

Of the compounds above, two have a CF3 group.
SMILES	CBX7 AlphaScr	CBX7 AlphaScr z-score
FC(F)(F)c1cccc(-c2noc(-c3cccc(Br)c3)n2)c1	1.22	3.37
O=C(NCc1cccnc1)c1cnn2c(C(F)(F)F)cc(-c3ccc(F)cc3)nc12	1.1	3.22

Continued:
SMILES	CBX7 AlphaScr	CBX7 AlphaScr z-score
COc1ccc(NC(=O)Nc2cccc(C)n2)cc1	1.01	0.217
Cc1ccc(N(CC(O)CN2CCCC2)S(=O)(=O)c2ccc(C)cc2)cc1 (centres undefined)	1.34	0.781
FC(F)(F)c1nnc2ccc(N3CCCCC3)nn12	1.14	1.52
O=C(CC1(O)C(=O)Nc2ccc(Cl)cc21)c1ccc(Cl)cc1 (centres undefined)	1.02	0.803
CCSc1nc2ccccc2n1CCOc1ccccc1	1.08	3.42
Cc1nc(N2CCCC(C)C2)c2c(C)c(C)sc2n1 (centres undefined)	1.15	1.49
CC(C)CN(CCNC(=O)c1cc(=O)[nH]c2ccc(S(=O)(=O)N3CCCCC3)cc12)CC(C)C	0.938	-0.737
COC(=O)CSc1nnc(Cc2cc(=O)[nH]c(=O)[nH]2)n1-c1cc(C)ccc1C	0.788	-0.441
CCOc1ccc(NC(=O)NCC2CCN(C(C)c3ccccc3)C2)cc1 (centres undefined)	0.974	-0.656
O=C(NCc1ccc(F)cc1)C1CC(=O)N(C2CCCCCCC2)C1 (centres undefined)	1.05	1.17
COc1ccc(C(=O)Nc2nc3n(n2)C(c2ccccc2)CC(=O)N3)cc1 (centres undefined)	0.972	-0.507
O=C(c1ccc2c(c1)ncn2C1CCCCC1)N1CCOCC1	1.01	0.147
O=C(NCCCN1CCC(N2CCCCC2)CC1)c1ccc2nc(N3CCOCC3)sc2c1	2.35	12.6
Cc1ccc(-c2nnc(NCCCO)c3ccccc23)cc1	1.02	0.541
Cc1ccc(CCN2CC(C(=O)NCc3ccc(C)cc3)CC2=O)cc1 (centres undefined)	1.05	0.898
O=C(Nc1cccc(Cl)c1)C1c2ccccc2C(=O)N2CCc3ccccc3C12 (centres undefined)	1.15	2.92
COc1ccc(NC(=O)CCNS(=O)(=O)c2ccc3c(c2)CCC(=O)N3)cc1Cl	1.02	0.319
CCc1ccc(NS(=O)(=O)c2ccc3[nH]cc(C(=O)N4CCCCC4)c(=O)c3c2)cc1	1.01	0.177
CCN1C(=O)c2ccccc2Sc2ccc(C(=O)NC3CCCC3)cc21	0.888	-1.33
Cc1ccccc1-c1nc(CN2CCC(C(=O)N3CCN(C)CC3)CC2)c(C)o1	1.11	4.12
COc1ccc2cc(CCNC(=O)c3cc(C)cc(C)c3)c(=O)[nH]c2c1	0.987	-0.338
Cc1cccc(C)c1Nc1c(-c2ccccc2F)nc2cccc(C)n12	0.869	-0.178
COc1ccc(C(=O)NCc2nnc(SCC(=O)Nc3ccc(F)cc3)o2)cc1OC	0.973	-0.767
Cc1cc(C)cc(NC(=O)c2cnn3cccnc23)c1	1.03	0.461

Reprinted at random: 2 entries already listed, in no set order.
SMILES	CBX7 AlphaScr	CBX7 AlphaScr z-score
O=C(Nc1cccc(Cl)c1)C1c2ccccc2C(=O)N2CCc3ccccc3C12 (centres undefined)	1.15	2.92
CCN1C(=O)c2ccccc2Sc2ccc(C(=O)NC3CCCC3)cc21	0.888	-1.33

Next part.
SMILES	CBX7 AlphaScr	CBX7 AlphaScr z-score
O=C(O)CN(c1ccc2c(c1)OCO2)S(=O)(=O)c1ccc2[nH]c(=O)c(=O)[nH]c2c1	0.996	-0.106
Cc1ccc(NC(=O)c2cc(-c3cccs3)on2)cc1C	0.974	-0.0262
Cn1c(SCc2nc3ccccc3[nH]2)nc2ccccc21	1	-0.00508
CSc1ccc(OC2CCCCC2NS(=O)(=O)c2ccc(Cl)cc2)cc1 (centres undefined)	1.01	0.328
O=C(NCC1CCCC1c1ccccc1)C1c2ccccc2C(=O)N2CCc3ccccc3C12 (centres undefined)	0.688	-0.31
COCCCNC(=O)CSc1nc(NC2CCCCC2)c2ccccc2n1	1.03	1.57
Cc1sc2nc(Cc3ccccc3)nc(N(C)Cc3ccccc3)c2c1C	1.13	2.51
O=C(NCCN1CCOCC1)c1ccc2c(c1)ncn2C1CCCC1	0.789	-2.43
CN(Cc1ccccc1)c1nnc(NC(=O)Nc2ccccc2Cl)s1	1.05	0.185
COc1cccc(-c2nc(CS(=O)(=O)CC(=O)NCc3cccs3)c(C)o2)c1	1.02	0.728
COc1ccc(CN(C(=O)c2ccc(F)cc2)C2CCS(=O)(=O)C2)cc1 (centres undefined)	1.04	0.0393
CCOC(=O)C1CCN(c2c(Nc3ccc(C(C)C)cc3)c(=O)c2=O)CC1	1.21	2.06
Cc1cc(C)cc(N2C(=O)c3nccnc3C2=O)c1	0.972	-0.354
Cc1cccc(C)c1Nc1c(-c2ccc(F)cc2)nc2cnccn12	1.06	0.65
CCOC(=O)c1[nH]c2c(c1Cc1ccccc1OC)C(=O)CC(c1cc(OC)ccc1OC)C2 (centres undefined)	0.748	-1.66
O=C(NCc1ccc(F)cc1)c1ccc2c(c1)N(Cc1ccc(F)cc1)C(=O)c1ccccc1S2=O (centres undefined)	1.03	0.786
COc1cccc(NS(=O)(=O)c2ccc3[nH]cc(C(=O)NCCCOC(C)C)c(=O)c3c2)c1	0.933	-0.842
CCOC(=O)CNC(=O)CN1C(=O)CC(c2ccc(OC)c(OC)c2)Sc2ccccc21 (centres undefined)	1.15	2.12
OC(COCc1ccccc1)Cn1c2ccccc2c2ccccc21 (centres undefined)	1.07	1.92
COc1ccc(Nc2c3c(nc4ccccc24)CCC3)cc1Cl	0.832	-5.04
CCN(C(=O)CCc1nc(-c2ccccc2F)no1)c1cccc(C)c1	0.958	-0.904
O=C1CCc2cc(S(=O)(=O)NC(Cc3ccccc3)C(=O)NC3CCCCCCC3)ccc2N1 (centres undefined)	0.999	-0.0212
COc1ccc(-n2nc(C(=O)Nc3cc(Cl)c(OC)cc3OC)c3ccccc3c2=O)cc1	1.01	0.155
O=C(Cn1nc(-c2ccccc2)ccc1=O)NCCCN1CCCC1	1.01	0.153
